StopGo RLuc: FMDV 2A StopGo reporter, Renilla signal; HEK cells with a luciferase reporter of 2A StopGo recoding; Potency, µM (titrated, usually from 57.5 µM), without a hit: top-dose signal change, negative = less light; 120,000 tested, 0.32% active; active means well fitted falling curve with a large enough effect; inconclusive means small, poorly fitted or top-dose-only effect; inactive means no such curve, though single readings can be large or run the other way; note: nearly all actives have a fitted effect of over 55% in size; overnight with compound
2A firefly: FMDV 2A StopGo reporter, firefly signal | HEK cells with a luciferase reporter of 2A StopGo recoding | Potency, µM (series often up to 57.5 µM), for the others: at the top dose signal change, negative = less light | 120,000 tested, 0.23% active | AID 1745856; active = well fitted falling curve with a large enough effect; inconclusive = small, poorly fitted or top-dose-only effect; inactive = no such curve, though single readings can be large or run the other way; note: nearly all actives have a fitted effect of over 60% in size; overnight with compound
* hit, by the source's call; ? = inconclusive; & = joins results of further samples; [ ] = dose if it differs, or a comment. % is set by controls: 0 for no effect and ±100 for the full control effect; potency is the fitted concentration of half-maximal effect. Some of the compounds tested. The share of hits here may be higher or lower than overall.

Value order – StopGo RLuc, 2A firefly
CCc1cc(C(=O)N2CC=C(c3ccccc3)CC2)sc1C
 : 7%, 8%
CC(=O)c1c(C)[nH]c(C(=O)C(C)OC(=O)c2cc(Cl)ccc2F)c1C (stereo not given)
 : 16%, 19%
COc1ccccc1CCNC(=O)c1csc(NC(C)C)n1
 : 29%, 120%[activator]
COC(=O)COc1ccccc1/C=C/C(=O)c1cc2ccccc2o1
 : -3%, 15%
CCC(NC(=O)C12CC3CC(CC(C3)C1)C2)c1ccccc1 (stereo not given)
 : 23%, 1%
CCCCC(=O)Nc1cccc(-c2nc3ccccc3o2)c1C
 : 4%, 0%
COc1ccc(CCNC(=O)c2c(C)oc3ncnc(N4CCOCC4)c23)c(OC)c1
 : -1%, -20%
O=C(Nc1ccccc1Cl)c1c2c(nc3ccccc13)CCCC2
 : 21%, -1%
CC(C)C(NS(=O)(=O)c1ccc2c(c1)oc(=O)n2C)C(=O)NCCc1ccc(Cl)cc1 (stereo not given)
 : -5%, -16%
C#CCN(C(=O)Cn1c(=O)c2c(ncn2C)n(C)c1=O)C1CCCCC1
 : -7%, 12%
CC(=O)N1CCc2c(sc3c2c(=O)n(-c2ccccc2Cl)c(=O)n3Cc2cccc(C)c2)C1
 : ?, ?
O=C(N/N=C/c1cccs1)c1cccc(N/N=C/c2cccs2)c1
 : 75%[activator], 19%
C(=C\c1ccccc1)/Sc1cccc2cccnc12
 : 9%, 202%[activator]
COC(=O)c1ccc(CNC(=O)CCl)cc1
 : ?, ?
COc1cccc(C(=O)n2nc(-c3ccco3)nc2NCc2cccs2)c1
 : -9%, 35%[activator]
CCn1c(=O)c(=O)[nH]c2cc(C(=O)N3C4CCC3CC4)ccc21
 : -5%, -10%
O=C(/C=C/c1ccccc1OCc1cccnc1)c1ccc(N2CCOCC2)cc1
 : ?, ?
O=C(CN1C(=O)COc2ccc(Cl)cc21)Nc1cccc(C(=O)O)c1
 : 0%, 5%
CCCNc1ccc(F)cc1
 : 24%, 25%
O=C(CN1CCN(C(=O)c2nn(Cc3ccccc3)c(=O)c3ccccc23)CC1)N1CCOCC1
 : 0%, 5%
CCCCn1c(N)c(N(C(=O)c2cc(CCC)c(C)s2)C2CCCC2)c(=O)[nH]c1=O
 : 3%, -10%
Cc1cc2ccccc2n1CC(=O)N1CCN(CC(=O)N2CCCCCC2)CC1
 : -17%, -9%
Brc1ccccc1N/N=C(/C=C/c1ccccc1)c1ccccc1
 : 14%, 37%[activator]
COc1ccc2c(CC(=O)Nc3ccc(C)cc3)coc2c1
 : 20%, 46%[activator]
O=C(NCc1ccccc1)C1CCCN(C(=O)c2ccc3cc[nH]c3c2)C1 (stereo not given)
 : 9%, -3%
Cc1ccc(S(=O)(=O)N2CCCCC2)cc1NC(=O)c1nn(C(C)C)c(=O)c2ccccc12
 : 16%, 11%
O=C(Nc1ccc2c(c1)C(=O)c1ccccc1-2)c1ccc2c(c1)OCO2
 : -6%, 77%[activator]
COc1cc(NC(=O)Cn2nc(Cc3ccncc3)c3ccccc3c2=O)cc(OC)c1OC
 : -24%, -18%
CCN(Cc1cc(=O)[nH]c2ccccc12)C(=O)c1ccc(C)cc1
 : -9%, 27%
Cc1ccccc1-c1noc(Cn2cnc3c2c(=O)n(C)c(=O)n3C)n1
 : ?, ?

Whole records as entered above. Screens in order: StopGo RLuc | 2A firefly
COC(=O)c1ccc(CNC(=O)CCl)cc1 is listed with ? | ?
Cc1ccc(S(=O)(=O)N2CCCCC2)cc1NC(=O)c1nn(C(C)C)c(=O)c2ccccc12 is listed with 16% | 11%

Other results follow.
Value order – StopGo RLuc, 2A firefly
O=C(O)c1ccc(F)c(F)c1F
 : -2%, 6%
Cc1ccc(-c2noc(CN(C(=O)c3cccs3)C3CCCCC3)n2)cc1
 : 17%, 2%
O=C(N/N=C/CCc1ccccc1)C1CC1
 : 5%, 20%
Cc1cccn2c(=O)c3cc(C(=O)NC(C)(C)C)n(C)c3nc12
 : -1%, 20%
Cc1ccc(C)c(Oc2ccc(CNC(=O)c3ccc4c(c3)NC(=O)CS4)cn2)c1
 : ?, ?
CCCCCn1nc(C(=O)OCC(=O)N2c3ccccc3NC(=O)C2(C)C)c2ccccc2c1=O
 : 0%, 39%[activator]
CCc1ccc(-n2c(C)nnc2SCc2nc(-c3ccc(OC)cc3)no2)cc1
 : -12%, -25%
C=C(Br)CN1CCN(C(=O)CN2CCCC2)CC1
 : -2%, -11%
COCc1nn2c3c(cnc2c1-c1ccccc1)C(=O)CC(c1ccc(OC)cc1OC)C3 (stereo not given)
 : 3%, 12%
COc1ccc(NCc2ccco2)cc1
 : 2%, 108%[activator]
COc1cccc(-c2cc(C(=O)Nc3cc(C)nn3-c3ccccc3)no2)c1
 : -5%, -9%
COc1ccc(CNC(=O)CCc2c(C)nn(-c3ccc(N4CCOCC4)nn3)c2C)c(OC)c1
 : -13%, -11%
COc1cc(NC(=O)Nc2ccc3nc(N4CCOCC4)cc(C)c3c2)cc(OC)c1OC
 : 5%, 19%
Cc1ccccc1C1=NN(C(=O)CCC(=O)O)C(c2ccc3nccnc3c2)C1 (stereo not given)
 : ?, ?
O=C(CCSCc1ccc(Cl)cc1)NCc1ccc(F)cc1Cl
 : 1%, -7%
O=C(c1cc(=O)c2cc(Cl)ccc2o1)N(Cc1ccc(F)cc1)C1CCS(=O)(=O)C1 (stereo not given)
 : -4%, -6%
Clc1ccc(CN2CCN(c3ncnc4sc5c(c34)CCCC5)CC2)cc1Cl
 : -6%, -15%
CC(C)=CCc1c(O)cc2c(c1O)C(=O)C[C@@H](c1ccccc1)O2
 : ?, ?
O=C(CSc1nc2ccc(NC(=O)C3CCCCC3)cc2s1)Nc1ccc(Cl)cc1
 : -7%, 30%
CCCCNC(=O)C(C#N)c1nc2ccccc2nc1OC(C)C (stereo not given)
 : -11%, 9%
Cc1ccc(Nc2nc3ccccc3nc2NS(=O)(=O)c2ccc3c(c2)OCCO3)cc1
 : 46%[activator], 4%
COc1cc(C2C(=O)N(C3CCCCC3)CC(=O)N2CCC2=CCCCC2)ccc1OC(C)C (stereo not given)
 : 5%, -13%
Cc1c(C(=O)N(Cc2ccc(N(C)C)cc2)C2CCS(=O)(=O)C2)oc2ccccc12 (stereo not given)
 : 3%, -19%
CC1CCCCN1C(=O)Cn1c(SCC(=O)N(C)c2ccccc2)nc2ccccc21 (stereo not given)
 : 37%[activator], 0%
CCC(=O)N1CCc2cc(S(=O)(=O)NC(CC(C)C)C(=O)NCCc3ccccc3)ccc21 (stereo not given)
 : 10%, -3%
O=C(Nc1ccc(C(=O)OCc2cc(=O)n3c4c(sc3n2)CCCC4)cc1)c1cccc(F)c1
 : 326%[activator], -10%
CC(C)Cn1cnc2c1c(=O)n(CC(=O)Nc1ccc(C#N)cc1)c(=O)n2Cc1ccccc1
 : -6%, -18%
CCCCn1nc(C(=O)Nc2ccc(OCC#N)cc2)c2ccccc2c1=O
 : 42%[activator], 23%
COc1ccc(C(=O)NO)cc1
 : 87%[activator], 117%[activator]
c1ccc(Oc2nc(-c3ccncc3)nc3ccccc23)cc1
 : -7%, -5%
Cc1cccc(N(C)C(=O)c2cc(S(=O)(=O)N3CCCC3)cn2C)c1
 : -3%, -17%
Cn1ccc2cc(S(=O)(=O)N3CCCC(C(=O)NCc4ccccc4F)C3)ccc21 (stereo not given)
 : 70%[activator], -16%
CCc1nn2c(C)c(C(=O)Nc3ccc(F)cc3)nnc2c1-c1ccc(OC)cc1
 : -3%, 4%
COc1cccc(/C(O)=C2\C(=O)C(=O)N(CCc3ccccc3)C2c2ccc(O)cc2)c1 (stereo not given)
 : 8%, 118%[activator]
Cc1ccccc1CNC(=O)CCCn1c(=O)c2cccn2c2ccccc21
 : 23%, 0%
CNC(=O)CSc1cc(-c2ccccc2)c2ccc(OC)cc2n1
 : 80%[activator], 37%[activator]
O=C(Cc1csc2nc(-c3ccc(Cl)cc3)cn12)NCCc1ccccc1
 : 16%, 44%[activator]
COc1ccc(-c2cnc(C)o2)cc1S(=O)(=O)Nc1c(C)cc(C)cc1C
 : 195%[activator], -16%
O=C(Cn1ccc2cc(S(=O)(=O)N3CCCCCC3)ccc21)N1CCC2(CC1)OCCO2
 : 71%[activator], 19%
CCN1CCN(c2nc3ccccc3nc2C(C#N)S(=O)(=O)c2ccc(Cl)cc2)CC1 (stereo not given)
 : 94%[activator], 16%
CSc1ccc(CNC(=O)CCc2c(C)nn(-c3ccc(N4CCCC4)nn3)c2C)cc1
 : 18%, 9%
COc1ccc(N2CC(NC(=O)c3ccc(S(=O)(=O)N4CCOCC4)cc3)CC2=O)cc1 (stereo not given)
 : -18%, -20%
CC(C)CCNC(=O)C1CCN(C(=O)N2CCOc3ccc(Cl)cc32)CC1
 : 4%, -10%
COc1ccc(N(CC(=O)Nc2ccccc2C(=O)N2CCCCCC2)S(C)(=O)=O)c(OC)c1
 : 13%, 6%
COc1ccc(/C=C/c2nc(C#N)c(N3CCC(C(N)=O)CC3)o2)cc1OC
 : 4%, -4%
N#C/C(=C\c1ccc(F)cc1)c1nc(-c2ccc(-c3ccccc3)cc2)cs1
 : -3%, -4%
CCNC(=S)NNC(=O)c1cccc(C)c1
 : 4%, 0%
Cc1nn(-c2ccc(F)cc2)c2sc(C(=O)OCC(=O)Nc3ccccc3OC(F)F)cc12
 : -11%, -7%
O=C(OCC(=O)C12CC3CC(CC(C3)C1)C2)c1ccccc1Sc1ccc(C(F)(F)F)cc1[N+](=O)[O-]
 : -8%[1.06 µM], 22%
Cc1cccc(N2CCN(C(=O)CS(=O)(=O)Cc3nc(-c4ccccc4C)oc3C)CC2C)c1 (stereo not given)
 : ?, ?
CCOc1ccc(CN(CCc2ccc3c(c2)OCO3)Cc2cc(OC)ccc2O)cc1
 : 7%, 14%
O=S(=O)(c1ccc(SCc2cc(Cl)c3c(c2)OCCO3)nc1)N1CCOCC1
 : ?, ?
Cc1nc2nc(NCc3ccc(Cl)cc3)[nH]n2c(=O)c1CCO
 : 3%, 16%
Cc1ccc(CNC(=O)c2ccc3c(c2)N(Cc2ccccc2)C(=O)c2ccccc2S3(=O)=O)cc1
 : 0%, 18%
Cc1ccc(C)c(Nc2nn3c(=O)c4ccc(C(=O)NCc5cccs5)cc4nc3s2)c1
 : 1%, -8%
O=C(Cn1c(=O)[nH]c2c(-c3ccccc3)c[nH]c2c1=O)NCc1ccc(F)cc1
 : -3%, 8%
O=C(c1c2c(nc3ccccc13)C(=O)N(C1CCCCC1)C2)N1CCN(c2ccc(F)cc2)CC1
 : 39%[activator], -26%
CC(=O)Nc1cccc(-c2nnc(SCC(=O)c3cc([N+](=O)[O-])ccc3Cl)o2)c1
 : -17%, 75%[activator]
Cc1cccc(NC(=O)Cc2c(C)nc3nc(-c4cccs4)nn3c2C)c1
 : -14%, 4%
O=S(Cc1ccccc1)Cc1ccc(F)cc1Cl (stereo not given)
 : 0%, 18%

Grouped by structure: those above containing a cyano group (six)
Value order – StopGo RLuc, 2A firefly
CCCCNC(=O)C(C#N)c1nc2ccccc2nc1OC(C)C (stereo not given)
 : -11%, 9%
CC(C)Cn1cnc2c1c(=O)n(CC(=O)Nc1ccc(C#N)cc1)c(=O)n2Cc1ccccc1
 : -6%, -18%
CCCCn1nc(C(=O)Nc2ccc(OCC#N)cc2)c2ccccc2c1=O
 : 42%[activator], 23%
CCN1CCN(c2nc3ccccc3nc2C(C#N)S(=O)(=O)c2ccc(Cl)cc2)CC1 (stereo not given)
 : 94%[activator], 16%
COc1ccc(/C=C/c2nc(C#N)c(N3CCC(C(N)=O)CC3)o2)cc1OC
 : 4%, -4%
N#C/C(=C\c1ccc(F)cc1)c1nc(-c2ccc(-c3ccccc3)cc2)cs1
 : -3%, -4%

(more compounds)
Value order – StopGo RLuc, 2A firefly
COc1ccc(S(=O)(=O)NCCO)c2ccccc12
 : 94%[activator], 4%
COc1ccc(-c2nc3scc(CCNS(=O)(=O)c4ccc(F)cc4C)n3n2)cc1
 : 206%[activator], -9%
O=C(COc1ccccc1)N(Cc1cccnc1)c1nc2c(F)cc(F)cc2s1
 : 40%&130%[activator], 105%&132%[activator]
Cc1[nH]c2ccccc2c1CCN(Cc1ccccn1)C(=S)NC(C)(C)C
 : 28%, -12%
CC(=O)NCCc1nc2ccccc2n1Cc1cc(C)ccc1C
 : -13%, -1%
CCCCN(C(=O)c1cc(Cl)nc2ccccc12)c1c(N)n(CC(C)C)c(=O)[nH]c1=O
 : 6%, 4%
COc1ccc(NC(=O)CC2C(=O)N(c3ccc(C)cc3)C(=O)N2Cc2ccc(C)cc2)cc1 (stereo not given)
 : -7%, -9%
Oc1ccc(CNCc2ccco2)cc1
 : 31%, 37%[activator]
CC1=C(c2ccc(C)cc2)S(=O)(=O)NC1=NCc1cccc(F)c1
 : 194%[activator], 14%
COc1ccc(O)c(C2SCc3cc(C)c(C)cc3CS2)c1
 : 11%, -3%
CC(C)(Oc1ccc(CCNC(=O)c2ccc(Cl)cc2)cc1)C(=O)O
 : -7%, -5%
Cc1c(Cl)c(C(F)(F)F)nn1CC(=O)Nc1cc(Cl)ccc1Cl
 : -1%, 1%
CCNC(=O)c1ccc(-n2c(-c3ccccc3)cc3c2CCCCC3)cc1
 : 8%, 13%
COc1ccc(/C=C/C(=O)Nc2nc3n(n2)C(c2ccccc2)C=C(c2ccccc2)N3)cc1 (stereo not given)
 : 11%, 17%
Cn1cc(C(=O)N2CCN(Cc3ccc4c(c3)OCCO4)CC2)c(-c2ccc3c(c2)OCCCO3)n1
 : 6%, 6%
CCOCCCn1c(SCC(=O)Nc2ccc(F)cc2)nc2c(sc3ccccc32)c1=O
 : 2%, 15%
CCCC(=O)Nc1cc(-c2nnc(OC)c3ccccc23)ccc1N1CCOCC1
 : 25%, 26%
CCC(C)C(=O)OCc1cc(=O)oc2cc(O)ccc12 (stereo not given)
 : -9%, 21%
COC(=O)c1sccc1S(=O)(=O)NC(C)C1CCCO1 (stereo not given)
 : 49%[activator], -6%
CC(C)c1noc(CN2CCN(c3cccc(F)c3C#N)CC2)n1
 : -7%, -4%
